Bioassay records as filed in PubChem.
Mtb growth – M. tuberculosis H37Rv growth inhibitors, H37Rv strain (AID 1626); M. tuberculosis H37Rv growth inhibition; higher % means a stronger effect; inhibition, % at 10 µM, or IC50 in µM where a hit was titrated; hit rate 0.95% among 220,000;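 active means confirmed in a dose series; inconclusive means inhibition above 80% but not taken into the dose series; inactive means below 80% or under 30% at every dose of the series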;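 further: bacteria incubated seven days before Alamar blue readout; 0% = bacteria only wells and 100% = bacteria with antibiotic wells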
YopH PTP inh – blocks Yersinia enterocolitica YopH tyrosine phosphatase | inhibition, %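 (about 10 µM by stock and volumes)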 | AID 898 | fluorescence Ex485/Em525 | hit rate 0.16% among 140,000;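 active means inhibition of 50% or more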;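 further: controls were vehicle for no effect and minimum signal wells for full effect; inactives centre near -20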
Mtb bLac sens – beta-lactam sensitization of Mtb H37Rv; M. tuberculosis H37Rv growth with meropenem, percent inhibition; hits of this screen are not shown here; inhibition, % at 25 µM; hit rate 0.27% among 330,000;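 active means about 74% or more and at least 40 points above the plate without the antibiotic, then above 30% in a dose series; inconclusive means first-round hits that could not be retested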;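 further: growth measured after seven days incubation then overnight dye step; 0% = bacteria only wells and 100% = bacteria with antibiotic; twin plates without the antibiotic show which effects depend on it; some results filed as inactive read as strong as hits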
RecA splice inh – Mtb RecA intein splicing inhibition | hit rate 0.75% among 290,000 | cell-free RecA intein splicing, fluorescence | inhibition, %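 (about 9 µM by stock and volumes)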 | AID 2221 | P9WHJ3; in the data active means inhibition above about 30%; inconclusive means no clear call, values can overlap the other calls;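 further: 0% = vehicle wells and 100% = reference inhibitor control wells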
Target sequence (P9WHJ3 whole entry, looked up, canonical isoform): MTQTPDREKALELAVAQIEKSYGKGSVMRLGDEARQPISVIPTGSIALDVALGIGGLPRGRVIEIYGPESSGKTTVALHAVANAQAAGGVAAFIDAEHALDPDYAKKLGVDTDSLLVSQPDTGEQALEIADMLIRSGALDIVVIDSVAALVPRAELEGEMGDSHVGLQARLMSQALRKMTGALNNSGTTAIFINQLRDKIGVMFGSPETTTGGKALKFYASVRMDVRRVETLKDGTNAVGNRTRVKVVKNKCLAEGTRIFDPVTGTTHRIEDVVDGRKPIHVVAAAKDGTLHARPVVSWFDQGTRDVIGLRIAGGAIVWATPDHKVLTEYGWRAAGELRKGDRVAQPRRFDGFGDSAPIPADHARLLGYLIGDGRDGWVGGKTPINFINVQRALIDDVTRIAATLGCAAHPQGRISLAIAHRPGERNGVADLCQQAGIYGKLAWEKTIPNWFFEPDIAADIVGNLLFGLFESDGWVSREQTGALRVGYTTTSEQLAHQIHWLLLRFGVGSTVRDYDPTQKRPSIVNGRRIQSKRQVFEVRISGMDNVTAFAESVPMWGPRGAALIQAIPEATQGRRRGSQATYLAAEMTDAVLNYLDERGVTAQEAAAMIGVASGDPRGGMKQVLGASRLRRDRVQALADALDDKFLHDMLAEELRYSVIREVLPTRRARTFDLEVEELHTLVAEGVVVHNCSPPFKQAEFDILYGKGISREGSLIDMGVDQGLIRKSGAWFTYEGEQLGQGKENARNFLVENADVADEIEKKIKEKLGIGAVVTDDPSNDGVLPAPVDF
Arbovirus inh – arbovirus infection inhibition; arbovirus infection cell-based antiviral screen; inhibition, % at 10 µM; hit rate 0.37% among 200,000;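 active means inhibition from about 30%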;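 further: bluetongue infection of BSR cells; cell survival read as ATP light after 72 h; 0% = infected wells without compound and 100% = uninfected wells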
Arbovirus inh repeat – also measured in Arbovirus inh; calls as there; inhibition, %; measured here: 10K subset replicate screen; many hits read low in the repeat;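 first of two repeat runs on a subset; 0% = infected and 100% = uninfected wells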
* marks the source's active call; other numbers are inactive results; ? = inconclusive; . = not tested or not shown. A portion of the library, so the mix of outcomes need not match the whole.

SMILES	Mtb growth	YopH PTP inh	Mtb bLac sens	RecA splice inh	Arbovirus inh	others
COc1cccc(-c2nnn(CC(=O)O)n2)c1	-22%	-7	-4	-0.7	-1
O=C(Nc1ccc(C(=O)N2CCCC2)cc1)c1ccc2c(c1)OCO2	0%	0	41	-2.5	-3
CC1CCC(NC(=O)CCNC(=O)c2ccccc2)CC1 (centres undefined)	3%	.	-7	-3.8	7
COC(=O)c1cc2c(cc1[N+](=O)[O-])OCO2	1%	.	3	-2.8	-5
Cc1sc2nc(CSc3ccccc3)nc(N3CCOCC3)c2c1C	12%	-25	8	-2.7	-3
Cc1onc(C(=O)NC(C)c2ccccc2)c1[N+](=O)[O-] (centres undefined)	1%	.	4	0.2	7
Cc1ccc([N+](=O)[O-])cc1NC(=O)C(C)N1CCCCC1 (centres undefined)	-1%	.	-4	-0.3	2
Cc1cc(C)c2nc(SCC(=O)Nc3cc(C)on3)c(C)cc2c1	.	.	4	1.3	.
CC1(C)OC(c2ccccc2)=C/C(=C/C=N/NC(=O)c2ccncc2)O1	?	.	99	-25	13
N#Cc1nc(-c2ccc(F)cc2)oc1NCCN1CCOCC1	-4%	-13	-4	2.5	-1	Arbovirus inh repeat=10
CCOc1ccc(Br)cc1CNCCN1CCOCC1	-4%	-23	-2	-2.6	-17
COC(=O)c1sccc1NC(=O)c1ccc(Cl)cc1	.	.	-5	1.9	.
CC1(C)CCC(=O)N2CC[C@H]3C[C@H](OC(=O)Nc4ccc5c(c4)OCO5)C[C@@H]1[C@H]32	.	.	-14	-6.5	.
CCCCCCSc1cc(-c2nc3cc(C)ccn3c2NCCCC)ccc1OC	.	.	-3	3.3	.
Cc1ccc(NC(=O)CN(C)C(=O)C(C)OC(=O)c2ccccc2NCCO)cc1 (centres undefined)	.	.	-3	-0.3	.
Cc1ccccc1NC(=O)C(C)Sc1nnc(-c2ccncc2)n1CC1CCCO1 (centres undefined)	.	.	3	-0.2	.
COc1ccc(OC)c(-c2nnc(SCC(=O)NC3CCCCC3)o2)c1	1%	-22	1	-0.2	-2
CCCCOc1ccccc1C(=O)NCC(=O)O	-10%	-51	0	-0.8	3
CCOc1ccc(CNCCNC(=O)c2nonc2N)cc1	2%	.	4	2.1	12
O=C(/C=C/c1cccs1)c1cc(Cl)ccc1OC(=O)N1CCOCC1	3%	-16	3	2.4	6
Cc1nc(NCCO)c2nnn(Cc3ccccc3F)c2n1	3%	-32	-15	-0.9	-2
COc1cccc(/C=N/Nc2snc(SC)c2C#N)c1O	-2%	-27	4	0.3	15
CCCOc1ccc(-c2nc(-c3ccc([N+](=O)[O-])cc3)cs2)cc1	-8%	.	-1	-1.7	.
O=C(O)c1ccc(S(=O)(=O)Cc2ccccc2)cc1	-5%	-27	4	-0.5	5
CC(=O)c1ccc(-n2c(SCC(=O)c3c[nH]c4ccccc34)nc3ccccc3c2=O)cc1	5%	-7	-1	.	26
NNC(=O)CNC(c1ccccc1)c1cc(Br)ccc1NC(=O)CCN1CCOCC1 (centres undefined)	2%	-36	2	6.9	-17
Cc1cc(C(=O)NCCc2ccc(Cl)cc2)n(-c2ccccc2)n1	-3%	.	58	-2.3	.
Cc1ccc(C(=O)Nc2ccccc2SCC2CSc3nc4ccccc4c(=O)n32)cc1 (centres undefined)	3%	-11	3	-1.3	42*
COc1ccc(-c2oc3cccnc3c2-c2ccc(OC)nc2)cc1	.	.	8	5.9	.
CN1CCN(C(=S)c2cn(Cc3ccccc3F)c3ccccc23)CC1	7%	.	4	-0.2	2
COC(=O)C1(O)CC(C(C)C)=NN1C(=O)c1ccccc1 (centres undefined)	1%	-23	-2	-0.3	4
CC(=O)c1c(O)cc(C)n(-c2ccc(F)cc2)c1=O	-2%	.	2	-0.9	-2
COC(=O)CCCCCCCCC(=O)Nc1nc2ccccc2s1	1%	-5	6	2.8	15
O=C(Nc1ccc(C(F)(F)F)cc1)C1CCCN1S(=O)(=O)c1cccc2cccnc12 (centres undefined)	-1%	-34	22	2.7	-11
CSc1ccccc1C(=O)NCc1ccc2c(c1)OCO2	8%	-31	7	-1.0	-10
Cc1ccccc1C(=O)Oc1cc(N)n(S(C)(=O)=O)n1	0%	.	-4	9.0	-3
Cc1cccc(C)c1NC(=O)CCn1cnc2ccccc2c1=O	-2%	.	16	-0.3	1
COc1ccc(-c2nnc(NC(=O)c3ccc([N+](=O)[O-])o3)o2)c(OC)c1	.	.	97	-6.4	.
O=S(=O)(c1ccc(-c2ccno2)s1)N1CCCCC1	.	.	-13	0.1	.
Cc1nc(SCC(=O)NCc2ccco2)c2c(=O)n(C)c(=O)n(CC(C)C)c2n1	1%	.	-3	1.2	7
O=S(=O)(c1ccccc1)N1N=C(c2ccccc2)CC1c1ccccc1F (centres undefined)	.	.	3	9.4	.
O=C(c1cccc(S(=O)(=O)N2CCOCC2)c1)N1CCCC(C(F)(F)F)C1 (centres undefined)	.	.	-6	0.0	.
COC(=O)C1=C(c2cc3ccccc3s2)C[C@@H]2CC[C@H]1N2C(=O)NC1CC1	6%	.	-2	-0.2	.
COC(=O)c1nnn(-c2ccsc2C(=O)OC)c1C(=O)OC	3%	.	-3	-0.6	6
FC(F)Sc1ccc(-n2c(-c3ccc(Cl)cc3)c[n+]3c2CCC3)cc1	5%	.	-9	-3.0	-6
C[C@H]1CC[C@@H]2[C@@H](C)[C@H]3[C@H](C[C@H]4[C@@H]5CC=C6C[C@@H](O[C@@H]7O[C@H](CO)[C@H](O)[C@H](O[C@@H]8O[C@H](CO)[C@@H](O)[C@H](O)[C@H]8O)[C@H]7O[C@@H]7O[C@@H](C)[C@H](O)[C@@H](O)[C@H]7O)CC[C@]6(C)[C@H]5CC[C@]34C)N2C1	-1%	-24	1	-3.4	-36
COc1ccc(NC(=O)CSc2nc3c(c(=O)n2-c2ccc(F)cc2)SCC3)c(OC)c1	-3%	1	-17	3.6	-1
COc1ccccc1CCNC(=O)CSc1nc(=O)[nH]c2c1CCC2	.	.	-6	-1.8	.
CC1CCN(c2c(NCC3CCC(C(=O)N4CCCCC4)CC3)c(=O)c2=O)CC1 (centres undefined)	0%	-30	-5	-0.2	10
COC(=O)c1ccccc1NC(=O)c1ccccc1N(C)S(=O)(=O)c1ccccc1	3%	-8	-9	0.3	15
CCON1C(=O)CN(C(=O)OC)C1c1ccc(Cl)cc1Cl (centres undefined)	-8%	-14	0	-0.8	3
COc1cc2c(cc1OC)CN(C(=O)C1CCN(S(=O)(=O)c3ccccc3F)CC1)CC2	.	.	6	1.7	.
Cc1cc(C(=O)CSc2nnc(-c3cccc(F)c3)n2N)c(C)n1Cc1ccc2c(c1)OCO2	0%	-26	1	4.7	-1
NCCCC(=O)N1c2ccccc2Sc2ccc(Cl)cc21	.	.	0	0.0	.
COc1ccc(Oc2ccccc2C#N)cc1	10%	.	15	2.6	0
CCc1ccc(-n2c(Cn3nc(C(F)(F)F)cc3C)n[nH]c2=S)cc1	3%	-35	-20	-1.0	4
O=C(NC(=S)NNC(=O)c1ccccc1O)c1ccc(F)cc1	.	.	12	13	.
CC(=O)c1sc(Nc2nc(C)cc(C)n2)nc1C	3%	-21	-7	0.8	-21
COc1ccc(-c2noc(CSc3nnc(Cc4ccccc4)n3-c3ccc(Cl)cc3)n2)cc1	5%	-8	-6	18	2
COc1ccc(N(C(=O)c2ccco2)C(C(=O)NC2CCCC2)c2ccc(N3CCOCC3)cc2)c(OC)c1 (centres undefined)	.	.	2	0.3	.
More results:
SMILES	Mtb growth	YopH PTP inh	Mtb bLac sens	RecA splice inh	Arbovirus inh	others
CC(C)c1nnc(NC(=O)CCC(=O)NC2CC2)s1	.	.	2	-0.9	.
Cc1ccc2[nH]c(-c3ccccc3)cc(=O)c2c1	2%	-50	16	-2.7	-12
O=C(CN(CC1CCCO1)C(=O)CNS(=O)(=O)c1ccc(F)cc1)NCCc1ccccc1 (centres undefined)	.	.	4	-3.8	.
CC1Cc2ccccc2N1C(=S)Nc1ccc(S(N)(=O)=O)cc1 (centres undefined)	-3%	-24	4	-1.2	1
Cc1nn(C)cc1-c1n[nH]c(=S)n1-c1ccc(Cl)cc1	-7%	-19	-10	-1.6	3
CC(=O)c1sc(NC(=O)COc2ccc([N+](=O)[O-])cc2)nc1C	-7%	.	-1	3.4	-12
O=C(Nc1nc(-c2ccc3c(c2)OCCO3)cs1)C1CCCC1	-1%	.	-5	5.6	26
C=C(C)Cn1c(CCNC(=O)C(C)(C)C)nc2ccccc21	-4%	-34	-3	1.3	11	Arbovirus inh repeat=9

In the list so far, these have an aryl thioether with sulfur outside any ring:
SMILES	Mtb growth	YopH PTP inh	Mtb bLac sens	RecA splice inh	Arbovirus inh	others
Cc1sc2nc(CSc3ccccc3)nc(N3CCOCC3)c2c1C	12%	-25	8	-2.7	-3
Cc1cc(C)c2nc(SCC(=O)Nc3cc(C)on3)c(C)cc2c1	.	.	4	1.3	.
CCCCCCSc1cc(-c2nc3cc(C)ccn3c2NCCCC)ccc1OC	.	.	-3	3.3	.
Cc1ccccc1NC(=O)C(C)Sc1nnc(-c2ccncc2)n1CC1CCCO1 (centres undefined)	.	.	3	-0.2	.
COc1ccc(OC)c(-c2nnc(SCC(=O)NC3CCCCC3)o2)c1	1%	-22	1	-0.2	-2
COc1cccc(/C=N/Nc2snc(SC)c2C#N)c1O	-2%	-27	4	0.3	15
CC(=O)c1ccc(-n2c(SCC(=O)c3c[nH]c4ccccc34)nc3ccccc3c2=O)cc1	5%	-7	-1	.	26
Cc1ccc(C(=O)Nc2ccccc2SCC2CSc3nc4ccccc4c(=O)n32)cc1 (centres undefined)	3%	-11	3	-1.3	42*
CSc1ccccc1C(=O)NCc1ccc2c(c1)OCO2	8%	-31	7	-1.0	-10
Cc1nc(SCC(=O)NCc2ccco2)c2c(=O)n(C)c(=O)n(CC(C)C)c2n1	1%	.	-3	1.2	7
FC(F)Sc1ccc(-n2c(-c3ccc(Cl)cc3)c[n+]3c2CCC3)cc1	5%	.	-9	-3.0	-6
COc1ccc(NC(=O)CSc2nc3c(c(=O)n2-c2ccc(F)cc2)SCC3)c(OC)c1	-3%	1	-17	3.6	-1
COc1ccccc1CCNC(=O)CSc1nc(=O)[nH]c2c1CCC2	.	.	-6	-1.8	.
Cc1cc(C(=O)CSc2nnc(-c3cccc(F)c3)n2N)c(C)n1Cc1ccc2c(c1)OCO2	0%	-26	1	4.7	-1
COc1ccc(-c2noc(CSc3nnc(Cc4ccccc4)n3-c3ccc(Cl)cc3)n2)cc1	5%	-8	-6	18	2
